# Screening data from PubChem.
# ID4 binder – binds human ID4 protein on microarray; 1.2% of 31,000 active; small molecule microarray, Flag-ID4 binding, fluorescence F/B; AID 624137; calls only;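 active means spot signal over background at p below 0.07 in all four prints; compounds were printed on slides so no solution concentration is given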;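 further: a binder raises fluorescence above local background on the spot; about 2 pmol printed per array spot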
# Target sequence (P47928 whole entry, looked up): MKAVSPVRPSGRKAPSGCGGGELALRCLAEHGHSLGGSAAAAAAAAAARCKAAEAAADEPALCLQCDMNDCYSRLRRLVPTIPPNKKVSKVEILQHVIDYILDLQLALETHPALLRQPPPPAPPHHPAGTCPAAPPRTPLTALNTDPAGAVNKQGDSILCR
# Calls only; i = inactive. These rows are one share of the data; the hit share may differ from the screen's.
item	SMILES	ID4 binder
1	O=C(N[C@@H]1C=C[C@H](CC(=O)N2CCCCC2)O[C@@H]1CO)c1cccc(F)c1	i
2	O=C(C[C@H]1CC[C@H](NS(=O)(=O)c2ccccc2F)[C@@H](CO)O1)NCCCN1CCOCC1	i
3	C[C@H]1CN([C@@H](C)CO)C(=O)c2cc(C#CC3(O)CCCC3)cnc2O[C@@H]1CN(C)Cc1ccccc1	i
4	CC(C)(C)NC(=S)N1CCSCC1	i
5	C[C@@H]1CN([C@H](C)CO)S(=O)(=O)c2ccc(C#CC3CC3)cc2O[C@H]1CN(C)C(=O)C1CCCCC1	i
6	CC(=O)OCC1=C[C@@H](O)[C@@H]2C=CO[C@@H](OC3OC(CO)C(O)C(O)C3O)[C@H]12 (stereo not given in full)	i
7	C[C@@H]1CN([C@H](C)CO)C(=O)c2cc(C#CC3CC3)cnc2O[C@@H]1CN(C)Cc1ccncc1	i
8	COC(=O)C[C@H]1C[C@@H]2c3cc(N(C)C)ccc3O[C@@H]2[C@@H](CO)O1	i
9	COCC#Cc1cnc2c(c1)C(=O)N([C@H](C)CO)C[C@H](C)[C@H](CN(C)C(=O)C1CCC1)O2	i
10	COc1ccc(/C=C/C(=O)O[C@@H]2[C@@H](OC(=O)/C=C/c3ccc(OC)cc3)[C@H](C)O[C@@H](O[C@H]3[C@@H]4C=CO[C@@H](O[C@@H]5O[C@H](CO)[C@@H](O)[C@H](O)[C@H]5O)[C@@H]4[C@@]4(CO)O[C@@H]34)[C@@H]2OC(C)=O)cc1	i
11	COc1ccc(NC(=O)CN(c2ccc(Cl)c(Cl)c2)S(C)(=O)=O)cc1OC	i
12	COc1ccccc1-c1cnc2c(c1)C(=O)N([C@@H](C)CO)C[C@H](C)[C@@H](CN(C)C(=O)c1ccncc1)O2	i
13	COc1ccc(C)cc1NC(=O)c1ccc(OCC(=O)Nc2ccccc2C(F)(F)F)cc1	i
14	CC1CCN(S(=O)(=O)c2ccc(Cl)c(C(=O)Nc3ccccc3[N+](=O)[O-])c2)CC1	i
15	C[C@H](CO)N1C[C@H](C)[C@@H](CN(C)Cc2ccccn2)Oc2ncc(C3=CCCC3)cc2C1=O	i
16	COc1ccc(OC)c(C2C(C(=O)c3ccco3)C(=O)C(=O)N2CCN(C)C)c1 (stereo not given)	i
17	CCc1cccc(C)c1NC(=O)CSc1nc2ccccc2c(=O)n1-c1cccc2ccccc12	i
18	CNC[C@@H]1Oc2cc(C#Cc3cccc(F)c3)ccc2S(=O)(=O)N([C@@H](C)CO)C[C@H]1C	i
19	O=C(NCc1ccco1)c1ccc(NC(=O)c2ccccc2)cc1	i
20	CCOc1cc(C(=O)O)cc(Br)c1OCC(N)=O	i

# 7 compounds already listed, sorted by length of the SMILES, smallest number first.
item	SMILES	ID4 binder
16	COc1ccc(OC)c(C2C(C(=O)c3ccco3)C(=O)C(=O)N2CCN(C)C)c1 (stereo not given)	i
8	COC(=O)C[C@H]1C[C@@H]2c3cc(N(C)C)ccc3O[C@@H]2[C@@H](CO)O1	i
14	CC1CCN(S(=O)(=O)c2ccc(Cl)c(C(=O)Nc3ccccc3[N+](=O)[O-])c2)CC1	i
18	CNC[C@@H]1Oc2cc(C#Cc3cccc(F)c3)ccc2S(=O)(=O)N([C@@H](C)CO)C[C@H]1C	i
6	CC(=O)OCC1=C[C@@H](O)[C@@H]2C=CO[C@@H](OC3OC(CO)C(O)C(O)C3O)[C@H]12 (stereo not given in full)	i
9	COCC#Cc1cnc2c(c1)C(=O)N([C@H](C)CO)C[C@H](C)[C@H](CN(C)C(=O)C1CCC1)O2	i
5	C[C@@H]1CN([C@H](C)CO)S(=O)(=O)c2ccc(C#CC3CC3)cc2O[C@H]1CN(C)C(=O)C1CCCCC1	i

# Additional structures:
item	SMILES	ID4 binder
21	O=C(O)CCC(=O)Nc1ccc(Sc2ccc([N+](=O)[O-])cc2)cc1	i
22	C[C@H]1CN([C@@H](C)CO)C(=O)c2cc(-c3cccc(F)c3)cnc2O[C@H]1CN(C)C(=O)C1CC1	i
23	Cc1ccc(CN2C(=O)N(c3ccc(F)cc3)C(=O)C2CC(=O)Nc2ccc(Cl)cc2)cc1 (stereo not given)	i
24	COc1ccccc1C#Cc1cnc2c(c1)C(=O)N([C@@H](C)CO)C[C@@H](C)[C@@H](CN(C)C)O2	i
25	COCC(=O)Nc1ccc2c(c1)[C@@H]1C[C@@H](CC(=O)NCc3cccc(F)c3)O[C@@H](CO)[C@@H]1O2	i
26	COc1ccc(-c2nnc(SCC(=O)c3ccc(-c4ccccc4)cc3)o2)cc1OC	i
27	O=C1C(=O)N(Cc2ccco2)C(c2cccc(Cl)c2)C1C(=O)c1ccco1 (stereo not given)	i
28	CN(C)S(=O)(=O)c1ccc2c(c1)/C(=C/c1cc3c([nH]1)CCCC3)C(=O)N2	i
29	COc1ccc(NC(=O)c2ccccc2NC(=O)COc2cccc([N+](=O)[O-])c2)cc1	i
30	NC(=O)CSc1ncn(-c2ccccc2)n1	i
31	C[C@H]1CN([C@@H](C)CO)S(=O)(=O)c2ccc(C#Cc3ccc(F)cc3)cc2O[C@@H]1CN(C)C	i
32	CC(=O)N(C)C[C@H]1Oc2cc(-c3ccc(C)cc3)ccc2S(=O)(=O)N([C@H](C)CO)C[C@@H]1C	i
33	Cc1oc(S(=O)(=O)N2CCOCC2)cc1-c1nc(-c2ccc(C(C)(C)C)cc2)no1	i
34	C[C@@H]1CN([C@H](C)CO)S(=O)(=O)c2ccc(C#CC3CC3)cc2O[C@H]1CN(C)C(=O)Cc1ccncc1	i
35	C[C@@H]1CN([C@@H](C)CO)S(=O)(=O)c2ccc(-c3cccc(C#N)c3)cc2O[C@@H]1CN(C)C(=O)C1CC1	i
36	C[C@@H]1CN([C@@H](C)CO)C(=O)Cc2cc(N(C)C)ccc2O[C@H]1CN(C)C	i
37	O=C(COc1ccc([N+](=O)[O-])cc1)Nc1cccc(NC(=O)c2ccccc2Cl)c1	i
38	Cc1[nH]c2ccccc2c1C(=O)CSc1nc2ccccc2o1	i
39	Cc1cccc(CN(C)C[C@H]2OCc3cn(nn3)CCCC(=O)N([C@H](C)CO)C[C@H]2C)c1	i
40	COc1ccc(CN2C(=O)C(O)(CC(=O)c3cccs3)c3ccccc32)cc1OC (stereo not given)	i
41	CCCN(C)C[C@@H]1Oc2cc(-c3ccc(OC)cc3)ccc2S(=O)(=O)N([C@@H](C)CO)C[C@@H]1C	i
42	COc1ccccc1Nc1nc(N)nc(CSc2nnc(C)s2)n1	i
43	Cc1ccc2ccc(C(Nc3ccccn3)c3ccc(Cl)c(Cl)c3)c(O)c2n1 (stereo not given)	i
44	CC(=O)N(C)c1ccc(NC(=O)COc2ccc([N+](=O)[O-])cc2)cc1	i
45	C/C=C/c1cnc2c(c1)C(=O)N([C@H](C)CO)C[C@@H](C)[C@H](CN(C)Cc1ccc(F)cc1)O2	i
46	COc1ccc(-c2nnc(SCC(=O)Nc3ccc(C)cc3C)n2-c2ccccc2)cc1OC	i
47	CCCN(C)C[C@@H]1Oc2cc(C#CCC3CCCC3)ccc2S(=O)(=O)N([C@@H](C)CO)C[C@@H]1C	i
48	O=C(CN1C(=O)COc2ccc(Cl)cc21)Nc1ccc2c(c1)OCCO2	i
49	C[C@H]1CN([C@@H](C)CO)C(=O)c2cc(C3=CCCC3)cnc2O[C@@H]1CN(C)Cc1cccnc1	i
50	C=CC1(C)C=C2CCC3C(C)(C)C(O[C@@H]4O[C@@H](CO)[C@H](O)[C@H]4O)CCC3(C)C2CC1O[C@@H]1O[C@H](C)[C@@H](OC)[C@H](O)[C@H]1O (stereo not given in full)	i
51	CC(C)(C)c1ccc(OCC(=O)Nc2ccccc2C(N)=O)c(Br)c1	i
52	CS(=O)(=O)N(CC(N)=O)c1ccc(F)c(Cl)c1	i
53	C[C@H]1CN([C@@H](C)CO)C(=O)c2cc(C#Cc3ccccc3)cnc2O[C@H]1CN(C)C(=O)C1CC1	i
54	COc1ccc(NC(=O)O[C@@H](c2ccc(OCCO)cc2)[C@H](C)CCO)cc1	i
55	O=C(CSc1nnc(-c2ccco2)n1-c1ccccc1)Nc1ccnc2ccccc12	i
56	COC(=O)c1ccccc1NC(=O)CSc1n[nH]c(-c2ccccc2)n1	i
57	C[C@H](CO)N1C[C@H](C)[C@H](CN(C)C(=O)Nc2ccccc2)Oc2cc(C#C[C@@H](C)O)ccc2S1(=O)=O	i
58	CC(C)c1cn(CC[C@@H]2CC[C@H](NC(=O)C3CCC3)[C@H](CO)O2)nn1	i
59	C[C@H](CO)N1C[C@H](C)[C@H](CN(C)Cc2ccncc2)Oc2cc(C#CCN(C)C)ccc2S1(=O)=O	i
60	Cc1ccc(NC(=O)CSc2nnc(C)s2)c(C)c1	i
61	COc1ccc([N+](=O)[O-])cc1NC(=O)CN(c1ccc(C)cc1C)S(C)(=O)=O	i
62	C/C=C/c1ccc2c(c1)O[C@@H](CN(C)C(=O)Nc1cc(F)ccc1F)[C@H](C)CN([C@@H](C)CO)S2(=O)=O	i
63	C[C@@H](NC(=O)C[C@H]1C=C[C@H](NC(=O)C2CCC2)[C@H](CO)O1)c1ccccc1	i
64	C[C@H]1CN([C@@H](C)CO)C(=O)c2cc(-c3ccccc3F)cnc2O[C@@H]1CN(C)Cc1ccccc1F	i
65	O=C(Nc1ccc(Cl)cc1)NC(C(=O)O)c1ccccc1 (stereo not given)	i
66	Cn1c(SCc2nc3ccccc3c(=O)[nH]2)nnc1-c1ccco1	i
67	Cc1c(O)cc2c(c1O)C(=O)CC(c1ccc(O)cc1)O2 (stereo not given)	i
68	Cc1cccc(Nc2nnc(-c3ccc(C)c(S(=O)(=O)NCCO)c3)c3ccccc23)c1	i
69	Nc1ccc2nc(SCC(=O)Nc3ccc(Oc4ccccc4)cc3)sc2c1	i
70	CCc1ccc(CCC(=O)Nc2ccc(C)cc2C)o1	i
71	O=C(COc1cc(O)c2c(=O)c3ccccc3oc2c1)c1ccc(Cl)cc1	i
72	CN(C)C(=O)C[C@H]1C[C@H]2c3cc(NC(=O)CC4CC4)ccc3O[C@H]2[C@@H](CO)O1	i
73	CC1(CO)CC(O)CC2(C)C3=C(CCC12)C(=O)OC3 (stereo not given)	i
74	CC(=O)N(C)C[C@@H]1Oc2ncc(C#Cc3ccccc3F)cc2C(=O)N([C@@H](C)CO)C[C@@H]1C	i
75	CNC[C@@H]1Oc2cc(C#Cc3ccccc3OC)ccc2S(=O)(=O)N([C@H](C)CO)C[C@H]1C	i
76	CC1(C)CC(=O)C2=C(C1)N(Cc1cccnc1)C(=O)C2(NC(=O)c1ccco1)C(F)(F)F (stereo not given)	i
77	CC(C)C#Cc1ccc2c(c1)O[C@@H](CN(C)Cc1ccccc1)[C@H](C)CN([C@@H](C)CO)S2(=O)=O	i
78	C[C@H](CO)N1C[C@H](C)[C@@H](CN(C)C(=O)Nc2ccc3c(c2)OCO3)Oc2cc(C#Cc3ccccc3)ccc2S1(=O)=O	i
79	C[C@H]1CN([C@@H](C)CO)C(=O)c2cc(/C=C/c3ccccc3)cnc2O[C@@H]1CN(C)C(=O)CN(C)C	i
80	C[C@H](CO)N1C[C@H](C)[C@H](CN(C)C(=O)Cc2ccccc2)Oc2cc(C#Cc3ccccc3F)ccc2S1(=O)=O	i

# Continuation:
item	SMILES	ID4 binder
81	COC(=O)c1sccc1NC(=O)c1cc(-c2cccnc2)nc2ccc(Cl)cc12	i
82	CCc1ccc(OCC(=O)Nc2ccc(-c3nc4ccccc4o3)c(O)c2)cc1	i
83	COC(=O)c1c(NC(=O)COc2ccc(C(C)C)c(C)c2)sc2c1CCC2	i
84	C[C@@H]1CN([C@@H](C)CO)C(=O)c2cc(C#CC3CC3)cnc2O[C@@H]1CN(C)C(=O)c1ccc(F)cc1	i
85	CC(C)CC#Cc1ccc2c(c1)O[C@H](CN(C)C)[C@H](C)CN([C@H](C)CO)S2(=O)=O	i
86	C[C@H]1CN([C@@H](C)CO)C(=O)c2cccc(N(C)C)c2O[C@H]1CN(C)C(=O)Nc1ccccc1	i
87	CCn1c(SCC(=O)Nc2ccc(Cl)cc2C)nnc1-c1ccncc1	i
88	CCc1ccc(NC(=O)CSc2nnc(-c3ccc(Br)cc3)n2C)cc1	i
89	CCCN(C)C[C@H]1Oc2cc(C#Cc3ccccc3)ccc2S(=O)(=O)N([C@H](C)CO)C[C@@H]1C	i
90	Cc1ccc(CN(C)C[C@H]2OCc3cnnn3CCCC(=O)N([C@H](C)CO)C[C@H]2C)cc1	i
91	COc1ccc(OC)c(S(=O)(=O)N2CCC(C(=O)Nc3ccc(Cl)cc3)CC2)c1	i
92	Cc1ccccc1-c1cnc2c(c1)C(=O)N([C@H](C)CO)C[C@@H](C)[C@H](CN(C)Cc1ccccc1F)O2	i
93	COc1ccc(S(=O)(=O)N(C)C[C@@H]2Oc3ncc(C#CC4(O)CCCC4)cc3C(=O)N([C@H](C)CO)C[C@@H]2C)cc1	i
94	CSc1cccc(N2C(=S)NC3c4ccccc4OC24CCCC34)c1 (stereo not given)	i
95	O=[N+]([O-])c1cccc2c(Br)[nH]nc12	i
96	O=C(CCN1CCCCC1)N[C@@H]1CC[C@@H](CC(=O)N2CCC(Cc3ccccc3)CC2)O[C@H]1CO	i
97	CC(C)C#Cc1ccc2c(c1)O[C@@H](CN(C)CC1CCOCC1)[C@@H](C)CN([C@@H](C)CO)S2(=O)=O	i
98	C[C@@H]1CN([C@H](C)CO)C(=O)c2ccccc2-c2ccccc2CO[C@@H]1CN(C)S(=O)(=O)c1cccc(C#N)c1	i
99	CCN(CC(=O)Nc1ccc(F)c(Cl)c1)S(=O)(=O)c1ccc2ccccc2c1	i
100	CO[C@H](C(=O)N(C)C[C@H]1OCc2ccccc2-c2ccccc2C(=O)N([C@@H](C)CO)C[C@@H]1C)c1ccccc1	i
101	COC(=O)c1cccc(NC(=O)CN(c2ccc(I)cc2)S(C)(=O)=O)c1C	i
102	O=C(COc1ccccc1Cl)Nc1ccccc1NC(=O)c1ccco1	i
103	COc1ccc(C)cc1NC(=O)CSc1nnc(-c2ccc(Cl)c(Cl)c2)n1C	i
104	CC(C)c1ccccc1Oc1coc2cc(OCC(=O)Nc3ccccc3F)ccc2c1=O	i

# A second format for two compounds above:
104) CC(C)c1ccccc1Oc1coc2cc(OCC(=O)Nc3ccccc3F)ccc2c1=O
  ID4 binder = i
103) COc1ccc(C)cc1NC(=O)CSc1nnc(-c2ccc(Cl)c(Cl)c2)n1C
  ID4 binder = i
